NS1 inh – influenza NS1 inhibition; AID 2326; 0.4% of 270,000 active; Potency, µM (top dose mostly 46.1 µM), for the others: at the highest dose activity, positive = more growth; S. cerevisiae slowed by influenza A NS1, growth recovery by OD600; note: actives are rising curves; nearly all actives have a fitted effect of over 50% in size
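Compounds were scored for reversing the slow growth caused by influenza A NS1 in S. cerevisiae, measured by optical density at 600 nm. Assay medium contained 2% galactose at pH 6.0; NS1-free yeast of the same strain were the positive control.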
RE007 growth inh – less growth of the S. pombe RE007 Vpr strain; Potency, µM (highest dose often 92.2 µM), inactives show at the highest dose activity change, negative = less growth; 0.21% of 360,000 active; AID 651644; S. pombe RE007 Vpr strain, BacTiter-Glo ATP luminescence, 24 h; control for the full effect not named in the record; active = well fitted falling curve with a large enough effect; inconclusive = small, poorly fitted or top-dose-only effect; inactive = no such curve, though single readings can be large or run the other way;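 note: % is set by controls: 0 for no effect and ±100 for the full control effect; nearly all actives have a fitted effect of over 50% in size; the assay follows cell death caused by Vpr and the record does not say whether a fall means rescue or toxicity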
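Fission yeast RE007 carrying one integrated HIV-1 vpr copy, seeded at OD 0.01 in PMG+AL medium with 23 nL pinned compound. Grown 24 h at 30 degrees; viability read by BacTiter-Glo luminescence after 5 min.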
Cruzain Triton – blocks cruzain activity in presence of Triton detergent | P25779 | purified cruzain, Z-FR-AMC fluorescence, 0.01% Triton | Potency, µM, for the others: max response, negative = inhibition, usual class: inhibitors | 0.43% of 200,000 active; active = well fitted curve in the direction sought with a large enough effect; inconclusive = small, poorly fitted or top-dose-only effect, or another doubt; inactive = no such curve, though single readings can be large; an effect the other way counts as inactive or inconclusive;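 note: plate controls were neutral wells for no effect and buffer without enzyme for full effect; nearly all actives have a fitted effect of over 40% in size; top concentration of the series not given in the record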
Target sequence (P25779 123-467 limits assumed): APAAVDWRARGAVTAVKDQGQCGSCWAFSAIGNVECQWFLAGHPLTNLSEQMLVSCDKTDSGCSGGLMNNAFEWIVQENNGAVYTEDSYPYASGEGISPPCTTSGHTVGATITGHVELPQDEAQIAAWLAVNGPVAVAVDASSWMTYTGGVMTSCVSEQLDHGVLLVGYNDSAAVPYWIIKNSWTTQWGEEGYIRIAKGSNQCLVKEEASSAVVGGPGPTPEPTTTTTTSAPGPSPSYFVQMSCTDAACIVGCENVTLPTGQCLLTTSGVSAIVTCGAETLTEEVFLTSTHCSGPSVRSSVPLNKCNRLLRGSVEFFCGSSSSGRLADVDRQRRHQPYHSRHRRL
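15 min RT preincubation of 1.5 nM cruzain with compound, then 2 uM Z-FR-AMC added; kinetic AMC fluorescence, 60 s delta. Triton X-100 0.01%, pH 5.5.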
Cruzain noTriton – inhibitors of Trypanosoma cruzi cruzain without detergent. purified cruzain, Z-FR-AMC fluorescence, no detergent. AID 1476. 2.3% of 200,000 active. Potency, µM, without a hit: max response, negative = inhibition, hits mostly inhibitors; active = well fitted curve in the direction sought with a large enough effect; inconclusive = small, poorly fitted or top-dose-only effect, or another doubt; inactive = no such curve, though single readings can be large; an effect the other way counts as inactive or inconclusive;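 note: plate controls were enzyme without inhibitor for no effect and buffer without enzyme for full effect; nearly all actives have a fitted effect of over 40% in size; top concentration of the series not given in the record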
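Detergent-free condition (0.00005% Triton X-100) in acetate buffer pH 5.5 with DTT. 1.5 nM enzyme and compound were pre-mixed 15 min, then 2 uM Z-FR-AMC substrate added; reaction progress from fluorescence change between first and third reads (60 s).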
Lassa entry inh – inhibitors of Lassa virus binding or cell entry; 1.2% of 300,000 active; Lassa virus pseudotype entry inhibition, cell reporter; control for the full effect not named in the record; AID 540256; Potency, µM (series often up to 37.9 µM), inactives show at the highest dose activity change, negative = inhibition, usual class: inhibitors; active means well fitted inhibition curve with a large enough effect; inconclusive means small, poorly fitted or top-dose-only effect, or effect the other way; inactive means flat fitted curve, though single readings scatter; tested in HEK293 cells; note: % is set by controls: 0 for no effect and ±100 for the full control effect; nearly all actives have a fitted effect of over 50% in size; luciferase read-out
SARS PLP yeast – blocks SARS-CoV papain-like protease in a yeast assay | S. cerevisiae expressing SARS-CoV PLpro, growth rescue; control for the full effect not named in the record | 0.19% of 330,000 active | Potency, µM (doses to about 32.9 µM), for inactives: at the highest dose activity, positive = growth rescue | AID 485353; note: 0% is about no effect; nearly all actives have a fitted effect of over 55% in size; growth read by luminescence after 48 h
Marburg entry inh – Marburg virus entry inhibition | Marburg virus pseudotyped entry inhibition, cell reporter; control for the full effect not named in the record; about a third of the inactives were read at about 46 µM | Potency, µM (series often up to 37.8 µM), without a hit: at the highest dose activity change, negative = inhibition, hits mostly inhibitors | 1.8% of 300,000 active | AID 540276; active = well fitted inhibition curve with a large enough effect; inconclusive = small, poorly fitted or top-dose-only effect, or effect the other way; inactive = flat fitted curve, though single readings scatter; tested in HEK293 cells; about a fifth of its hits are not listed in these tables; note: % is set by controls: 0 for no effect and ±100 for the full control effect; luciferase read-out
StopGo reporter – lowers the luciferase signal of an FMDV 2A StopGo reporter. AID 1159524. 1.2% of 410,000 active. Potency, µM (titrated, usually from 57.9 µM), for the others: at the top dose signal change, negative = less light. human cells with a luciferase reporter of 2A StopGo recoding; control for the full effect not named in the record; active = well fitted falling curve with a large enough effect; inconclusive = small, poorly fitted or top-dose-only effect; inactive = no such curve, though single readings can be large or run the other way; tested in HEK293T cells; note: % is set by controls: 0 for no effect and ±100 for the full control effect; nearly all actives have a fitted effect of over 45% in size; luciferase light after 4 h
* hit, by the source's call; ? = inconclusive; nt = no result given; & = joins results of further samples; [ ] = remark or other dose. Unless noted, calls come from the whole dose curve; as a rule, active means well fitted rising curve with a large enough effect; inconclusive means small, poorly fitted or top-dose-only effect; inactive means no such curve, though single readings can be large or run the other way. Potency is the fitted concentration of half-maximal effect.

mol,RE007 growth inh,Cruzain noTriton,Cruzain Triton,Marburg entry inh,NS1 inh,SARS PLP yeast,StopGo reporter,Lassa entry inh
CCCN(CC(=O)Nc1ccccc1C)C(=O)CCCNC(=O)c1ccc(Cl)cc1,-3%,nt,nt,?,nt,-1%,-6%,8%
C[C@]12CCC3C(CC[C@H]4C[C@@H](O)CC[C@]34C)C1C[C@@H](N)[C@@H]2O (stereo partly specified),-14%,nt,nt,0%,nt,-4%,-15%,2%
CNS(=O)(=O)c1cc(N)ccc1C,0%,nt,nt,1%[46.1 µM],6%,-1%,73%[activator],8%
CCOC(=O)c1cnc(N2CC2)nc1N,1%,nt,nt,10µM*,nt,nt,0%,?
O=C(CSc1nnc(-c2ccc(Br)o2)n1Cc1ccccc1)c1ccccc1F,-11%,-14%,-9.6%,-18%&-18%,1%,1%,-13%,?
N#Cc1ccc(C(=O)NCc2ccc3c(c2)CCN3C(=O)c2ccc(F)cc2)cc1,nt,2%,4.6%,nt,nt,nt,-23%,?
COc1ccc(/C=N\NC(=O)c2ccccc2Br)cc1COc1ccc(F)cc1,1%,nt,nt,-13%,-3%,9%,-16%,-24%
Cc1nc(C(=O)NCCC(C)C)sc1C1(C)CC(c2cccc([N+](=O)[O-])c2)=NO1 (stereo unspecified),5%,nt,nt,nt,?,0%,-18%,nt
CCCCC(=O)Nc1ccnc(-c2cccnc2)n1,-13%,5%,2.5%,-8%,-14%,-1%,-5%,0%
Cc1ccc(NC(=O)c2ccc(CSc3nnc(-c4ccncc4)n3C)cc2)cc1,-9%,-3%,4.5%,19%,9%,-2%,24%,4%
O=C(NCCc1nnc2ccc(NCCCN3CCOCC3)nn12)c1ccccc1F,-4%,nt,nt,19%[46.1 µM],10%,2%,-1%,9%[46.1 µM]
CCOC(=O)CSc1nnc(-c2ccco2)n1-c1ccccc1,-3%,7%,3.2%,-4%,-4%,10%,-17%,-1%
COc1cccc(-n2c(Cc3cc(=O)[nH]c(=O)[nH]3)nnc2SCC(=O)NC2CCCCC2)c1,1%,-7%,0.2%,-1%,-1%,-3%,-4%,nt
CCOc1ccc(-c2nc(CNC(=O)NC3CCCCC3)c(C)o2)cc1,nt,17%,7.0%,nt,nt,nt,17%,26%[46.1 µM]
COc1ccc2c(COC(=O)CC3Sc4ccccc4NC3=O)cc(=O)oc2c1 (stereo unspecified),7%,?,-10%,0%,21%,-2%,35%[activator],?
CCn1cc(C(=O)NC(=S)Nc2ccccc2Br)cn1,4%,nt,nt,nt,-2%,16%,-5%,nt
CCc1ccc(S(=O)(=O)Nc2cccc(-c3ccc(N4CCC(C)CC4)nn3)c2)s1,nt,?,-3.5%,nt,nt,nt,-13%,?
COC(=O)c1sccc1NC(=O)c1ccc(C)s1,-27%,-7%,-3.4%,9%,-2%,-5%,17%,10%
CC(C)(C)c1cc2cccnc2n1Cc1cccc(Cl)c1,-6%,8%,-3.3%,?,-12%,-3%,-9%,?
CCN(CC)C(=O)C1CCCN(C(=O)c2oc3ccc(C)cc3c2C)C1 (stereo unspecified),20%,nt,nt,4%,-6%,-2%,-9%,?
CCN(CC)C(=O)c1cc2c(=O)c3cc(F)ccc3oc2nc1C,16%,nt,nt,?,-5%,1%,28%,17%[46.1 µM]
Cc1c(OC(C)C(=O)O)ccc2c3c(c(=O)oc12)CCCC3 (stereo unspecified),10%,nt,nt,-2%[46.1 µM],9%,1%,17%,1%[46.1 µM]
COc1ccc(OC)c(-c2nnc(-c3ccc(C)o3)o2)c1,-7%,-9%,-1.7%,4%,-11%,-5%,32%[activator],15%
CCOCCCNC(=O)c1ccc(/C=C2\Oc3ccccc3N(C)C2=O)cc1,-19%,nt,nt,nt,2%,-5%,-4%,nt
CC1CC(C)CN(c2nc(NCc3ccco3)nc(N)c2[N+](=O)[O-])C1 (stereo unspecified),-14%,13%,-8.7%,-10%,-8%,-37%,?,?
Cc1nc(C)c(C(=O)Nc2ccccc2-c2ccccc2)o1,-4%,-3%,-5.7%,?,-9%,0%,-24%,5%
CCOc1ccc(C(CCc2ccccc2)NC(=O)c2ccccc2)cc1OCC (stereo unspecified),7%,?,-0.2%,-24%,-2%,-7%,0%,21%[14.3 µM]
O=C(Cn1c(=O)oc2cc(S(=O)(=O)N3CCCC3)ccc21)NCc1ccccn1,-6%,3%,-0.5%,nt,15%,14%,-22%,nt
Cc1ccc(NC(=O)C(=O)NCCc2csc3nc(-c4ccccc4C)nn23)cc1Cl,nt,0%,-0.3%,nt,nt,nt,-6%,18%[46.1 µM]
O=C(NCCNc1ccc(Cl)cc1[N+](=O)[O-])c1ccccc1F,-3%,nt,nt,nt,-9%,1%,14%,nt
O=C(NC(=S)Nc1ccc(Br)cn1)c1cccnc1,-4%,nt,nt,5%[46.1 µM],-3%,0%,48%[activator],-2%[46.1 µM]
Cc1ccc2cc(CCNC(=O)CC(C)(C)C)c(=O)[nH]c2c1C,10%,5%,-1.7%,4%,-100%,?,9%,0%
C/C(=N\NC(=O)Cc1ccc(Cl)cc1)c1cccc(NC(=O)c2cccnc2)c1,13%,nt,nt,nt,9%,-7%,-3%,nt
O=C(Nc1c(C(=O)Nc2ccc(F)cc2)oc2ccccc12)c1ccccc1F,nt,-4%,-3.9%,7%[46.1 µM],nt,nt,-10%,-3%[46.1 µM]
CCc1ccccc1N1C(=O)CC(=O)NC1=O,-4%,nt,nt,-13%,nt,8%,4%,5%
CCOc1ccccc1NC(=O)CCN1CCN(S(=O)(=O)c2ccc(OC)cc2)CC1,8%,6%,0.3%,2%,-13%,0%,0%,0%
COc1ccccc1N(CC(=O)NCc1ccc(F)cc1)C(=O)CCC(=O)Nc1ccccn1,-4%,nt,nt,?,2%,0%,-6%,-2%[46.1 µM]
CC(C)CCNC(=O)C1CCCN(S(=O)(=O)c2ccc3c(c2)CC(C)N3C(=O)C2CC2)C1 (stereo unspecified),-3%,nt,nt,nt,-8%,-5%,3%,nt
CCc1ccc(NC(=O)C(=O)NCC2CCCN2S(=O)(=O)c2cccs2)cc1 (stereo unspecified),-10%,nt,nt,?,nt,-2%,?,-19%
CN(CCCC(=O)N1CCCC(C(N)=O)C1)S(=O)(=O)c1ccc(F)cc1 (stereo unspecified),-7%,nt,nt,-16%[46.1 µM],2%,0%,13%,-19%[46.1 µM]
Cc1cc(C)c(C(N)=O)c(Nc2ccc(F)cc2)n1,-2%,nt,nt,10%,-3%,1%,1%,?
CC1CCN(C(=O)COC(=O)c2ccccc2NC(=O)c2ccco2)CC1,-18%,nt,nt,?,-1%,0%,14%,-19%[46.1 µM]
Cc1cccc(COCC(Cc2ccccc2)N2CCN(C(=O)c3cc(Cl)cc(Cl)c3)CCC2=O)c1 (stereo unspecified),-3%,20%,-7.8%,?,24%,-10%,?,?
Cc1cccc(NC(=S)N(C)C2CCCCC2)c1,2%,nt,nt,15%[46.1 µM],nt,20%,2%,?
Cc1cc(C)cc(OC(=O)c2cc(-c3ccc(Cl)cc3)on2)c1,nt,-2%,0.1%,4%[46.1 µM],nt,nt,-18%,-5%[46.1 µM]
Cc1cc(Cl)ccc1OCc1nc(-c2ccc(-n3cccc3)cc2)no1,nt,-4%,-0.6%,9%[46.1 µM],nt,nt,0%,?
CCn1c(=O)c(=O)n(CC)c2cc(N3CCCCC3)c(NC(=O)c3ccc(Cl)cc3)cc21,nt,19%,3.5%,27%[46.1 µM],nt,-8%,-7%,4%[46.1 µM]
CCOC(=O)Cn1nnnc1C(CC)N(Cc1cc2ccc(C)cc2[nH]c1=O)C1CCCC1 (stereo unspecified),-2%,18%,-3.3%,-14%&-14%,-32%,3%,-22%,-25%
COC(=O)C(Cc1cnc(Cl)s1)(C(=O)OC)c1ccc(C(F)(F)F)cc1[N+](=O)[O-],0%,-6%,-0.6%,-9%[46.1 µM],5%,-7%,?,1%
O=C(Nc1ccc(C(=O)O)cc1)/C(=C\c1ccco1)NC(=O)c1ccccc1,-3%,nt,nt,-7%[46.1 µM],2%,1%,-7%,nt

(more compounds)
mol,RE007 growth inh,Cruzain noTriton,Cruzain Triton,Marburg entry inh,NS1 inh,SARS PLP yeast,StopGo reporter,Lassa entry inh
CC(C)Cc1nc(S(=O)(=O)c2ccc(Cl)cc2)c(N2CCOCC2)o1,2%,-13%,-15%,-15%,7%,4%,-15%,-10%
Cc1sc2nc(CSc3ncn[nH]3)[nH]c(=O)c2c1C,13%,nt,nt,28%[46.1 µM],nt,1%,6%,1%
COc1ccc(C2N(c3ccccn3)C(=O)C3CCCN32)c(OC)c1 (stereo unspecified),2%,-9%,0.2%,8%,-10%,-5%,0%,8%
CC(C)OCCCNc1ncnc2c1[nH]c1ccc(F)cc12,12%,-22%,?,?,-14%,-18%,40µM*,-29%
CCc1cc(=O)oc2cc(OCC(=O)NCCN3CCOCC3)c(Cl)cc12,-8%,nt,nt,nt,-5%,5%,-24%,nt
CC(=O)c1ccc(OCC(O)CN2CCN(c3ccc(F)cc3)CC2)cc1 (stereo unspecified),0%,nt,nt,7%[46.1 µM],2%,0%,-24%,3%
CN(C)S(=O)(=O)n1ccnc1,11%,-2%,2.2%,14%,0%,8%,1%,17%
O=C(CC1SC(=NCc2ccccc2)NC1=O)Nc1ccccc1 (stereo unspecified),-4%,4%,-0.9%,?,-2%,-2%,2%,4%
O=C(O)c1ccc(/C=N/Nc2ccc(S(=O)(=O)N3CCCC3)cc2[N+](=O)[O-])cc1,21%,nt,nt,-11%,1%,1%,-24%,0%
COc1ccc(CNC(=O)C2CCCC2)cc1,5%,nt,nt,4%[46.1 µM],nt,nt,33%[activator],10%[46.1 µM]

Screening results deposited in PubChem BioAssay by National Center for Advancing Translational Sciences (NCATS).
